# NPYLR7 ag: mosquito NPYLR7 agonism | AID 1259423 | activation, % at 10 µM | 270,000 compounds, 0.15% hits | HEK293T NPYLR7/Galpha15, GCaMP6s calcium fluorescence; in the data active means activation above about 40%;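 further: 0% = vehicle and 100% = reference agonist at the receptor; some compounds past the cut are filed as inactive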
# NPYLR7 ag max-min: second read-out of NPYLR7 ag, no call of its own (marks repeat the call); activation, %; measured here: Max-Min RFU normalised activation; some inactives read as strong as hits;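 span of the calcium signal over five minutes; 0% = vehicle and 100% = native peptide agonist; compound fluorescence can raise it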
# Starred values were filed as active, the others as inactive; i = inactive. Only part of the results is shown; count on the stated rates, not on these rows.
SMILES,NPYLR7 ag,NPYLR7 ag max-min
Fc1ccc(-c2cc(C(F)(F)F)nc(NCC3CCCO3)n2)cc1 (stereo unspecified),-0.8,-0.4
COc1ccc(S(=O)(=O)NCC2CCCO2)cc1N1CCN(S(=O)(=O)c2ccccc2C)CC1 (stereo unspecified),6.1,5.0
O=C(O)C1Cc2nc[nH]c2CN1C(=O)CC12CC3CC(CC(C3)C1)C2 (stereo unspecified),1.2,-2.3
CCOC(=O)C1CCCN(C(=O)CC2(c3ccccc3Cl)CC(=O)N(C3CCCC3)C2=O)C1 (stereo unspecified),1.4,-1.7
CC(C)OC(=O)C1C2(C)CSC(c3ccccc3)(S2)C(C#N)(C#N)C1(C#N)C#N (stereo unspecified),-3.6,-8.3
O=C(Nc1cccc(-c2cccc(-c3ccc(F)cc3)n2)c1)c1ccc([N+](=O)[O-])o1,1.1,5.4
Cc1ccc(NC(=O)CC(=O)NCc2csc(N)n2)cc1,6.7,5.6
COc1cc(CSc2ncc(CO)n2CC(=O)NC2CC2)cc(OC)c1,8.5,2.4
N#CC(=Cc1c(F)cccc1F)C(N)=O,14.6,7.6
COCCNC(=O)C1CCCN(C2CCN(C(=O)c3ccc(F)cc3)CC2)C1 (stereo unspecified),8.2,5.7
CN(CCCNC(=O)OC(C)(C)C)C(=O)c1cn(C)cn1,10.2,8.8
CCc1nc2n(n1)C(=O)C(C(c1ccccc1)N1CCCCC1)S2 (stereo unspecified),-1.0,4.5

# Among those listed so far, four have four or more nitrogen atoms:
SMILES,NPYLR7 ag,NPYLR7 ag max-min
CC(C)OC(=O)C1C2(C)CSC(c3ccccc3)(S2)C(C#N)(C#N)C1(C#N)C#N (stereo unspecified),-3.6,-8.3
Cc1ccc(NC(=O)CC(=O)NCc2csc(N)n2)cc1,6.7,5.6
CN(CCCNC(=O)OC(C)(C)C)C(=O)c1cn(C)cn1,10.2,8.8
CCc1nc2n(n1)C(=O)C(C(c1ccccc1)N1CCCCC1)S2 (stereo unspecified),-1.0,4.5

# 3 entries picked at random from those above, as already listed:
SMILES,NPYLR7 ag,NPYLR7 ag max-min
COc1ccc(S(=O)(=O)NCC2CCCO2)cc1N1CCN(S(=O)(=O)c2ccccc2C)CC1 (stereo unspecified),6.1,5.0
N#CC(=Cc1c(F)cccc1F)C(N)=O,14.6,7.6
CC(C)OC(=O)C1C2(C)CSC(c3ccccc3)(S2)C(C#N)(C#N)C1(C#N)C#N (stereo unspecified),-3.6,-8.3

# Next records.
SMILES,NPYLR7 ag,NPYLR7 ag max-min
CCCC(=O)N1CCCC1(C)C(=O)Nc1ccc2cn[nH]c2c1 (stereo unspecified),0.2,-0.1
Cc1cc(C)cc(CN2CCN(Cc3cnn(C)c3C3CC3)CC2=O)c1,-4.8,-11.6
CCC(=O)N(c1nnc(SCc2cc(=O)n3ccsc3n2)s1)C1CC1,7.3,5.7
O=C(CN1C(=O)C2C3C=CC(C3)C2C1=O)N1CCN(C2CCCCC2)CC1 (stereo unspecified),-1.6,-1.5
NC(=O)c1ccc(OCC(F)(F)C(F)F)nc1,8.1,8.3
CC1=CCC2C(=O)N(Cc3ccccc3)C(=O)C2C1 (stereo unspecified),3.7,3.3
CC1(C(=O)NS(=O)(=O)c2cccc(C#N)c2)CCN1C(=O)C1(c2ccccc2)CC1 (stereo unspecified),1.7,4.6
CC(C)NC(=O)CN1CCC2(CC1)SCC1C(=O)N(c3ccccc3)C(=O)N12 (stereo unspecified),0.4,21.1
O=C(C=CC1=Cc2cc(Cl)ccc2OC1)NS(=O)(=O)c1cccnc1,-2.8,-1.9
COc1cc(-c2nc(CSc3nc(-c4ccncc4)cc(=O)[nH]3)c(C)o2)cc(OC)c1OC,-3.3,-10.2
O=c1[nH]nc(SCc2cc3c(cc2Br)OCCO3)n1C1CC1,14.8,11.2
COc1cccc(-n2cnn(CN3CCN(c4ccc(F)cc4)CC3)c2=S)c1,0.8,-1.0
COC(=O)c1ccccc1SCc1csc(Cc2ccc(F)cc2Cl)n1,0.7,-5.6
CCCCOc1ccc(C2=N/C(=C\c3ccc4c(c3)OCO4)C(=O)O2)cc1,-1.4,-6.7
O=C(CNCCO)NC12CC3CC(CC(C3)C1)C2,2.9,1.8
Cc1cc(C)c2cccnc2c1O,2.9,1.5
CCCOC(=NC1CCCc2ccccc21)NC(=O)c1cccc(OC)c1 (stereo unspecified),-2.1,5.3
N#Cc1c(C(F)(F)F)c2cc3c(cc2oc1=O)OCO3,14.5,5.4
CCn1c(C2CCCN(Cc3ccc(C#CC(C)(C)O)cc3)C2)n[nH]c1=O (stereo unspecified),16.1,12.6
CC1=C(C(=O)OC(C)C)C(c2cccc([N+](=O)[O-])c2)N2C(CC(=O)O)=CSC2=N1 (stereo unspecified),10.3,8.7
CC1=NC2=C(C(=O)CCC2)C(c2ccccc2)C1C(=O)OCC1CCCO1 (stereo unspecified),-1.0,4.9
CCC(C(=O)NC1CCN(c2ccccc2C(=O)NCCCOC)CC1)c1ccccc1 (stereo unspecified),-3.1,2.5
Cc1cc(=O)n(C(C)(C)C)c(=O)n1Cc1ccccc1,-2.1,0.7
CCN=C1SC(CC(=O)Nc2ccc(N3CCOCC3)cc2)C(=O)N1CC (stereo unspecified),-6.1,-14.0
CC(C)N(CC(=O)N(Cc1ccc2c(c1)OCO2)Cc1ccco1)S(=O)(=O)c1ccc(Cl)c([N+](=O)[O-])c1,30.9,35.6
CNC(=O)/C(C#N)=C/c1c(Oc2cccc(C)c2)nc2ccccn2c1=O,0.8,10.3
CCCCN(C)c1c(CC)nc2ccc(C(=O)NCc3ccc(OC)cc3)cn12,5.2,-6.9
CCOCCn1c(=O)c2c(nc3n(C(C)c4ccccc4)c(C)cn23)n(C)c1=O (stereo unspecified),-0.7,13.3
CC(C)NC(=O)[C@@H]1C[C@@H](N)CN1Cc1ccnc(C(C)C)n1,-1.4,-6.2
COc1ccc(CCCNC(=O)c2ccc(-c3cn[nH]c3)nc2)cc1,26.6,18.2
CC(C)(N)COc1ncccc1Br,5.4,1.5
O=C1COc2ccc(C3=Nn4c(nnc4C4COc5ccccc5O4)SC3)cc2N1 (stereo unspecified),-0.9,-3.4
Cc1ccccc1C1c2ccsc2CCN1C(=O)CN(Cc1ccco1)C(=O)c1cccc(C(F)(F)F)c1 (stereo unspecified),18.7,31.7
CSC1CCC(N(C)C(=O)c2nccnc2N)C1 (stereo unspecified),-3.5,-7.8
Clc1ccc2c(NCCN3CCOCC3)nc(Cc3ccccc3)nc2c1,18.0,26.3
N#Cc1ccc(CSc2ncccn2)cc1,-5.8,-7.3
CCOc1ccccc1NC(=O)NC(C)c1nnc(SCc2ccc(F)cc2)n1-c1cc(Cl)ccc1C (stereo unspecified),19.9,19.4
COC(=O)c1cc(N2C(=O)C3C4C=CC(CC4)C3C2=O)ccc1Cl (stereo unspecified),-12.5,-16.6
Fc1ccc(N2CCN(c3nc(Nc4ccc(Cl)cc4)c4nccnc4n3)CC2)cc1,18.1,16.4
O=C(CN(C(=O)Cc1ccccc1)C1CC1)N(CCc1c[nH]c2ccccc12)Cc1ccc(Cl)cc1,-0.8,1.3
O=S(=O)(c1ccccc1C(F)(F)F)N1CCN(c2nccc(-c3ccco3)n2)CC1,-4.8,-6.7
Cc1cc(C)n(-c2ccc(N3CCN(C(=O)c4cc(F)c(F)cc4Cl)CC3)nn2)n1,-1.4,-7.2
CSC1=N/C(=C\c2ccc(N(C)C)cc2)C(=O)S1,3.6,-0.5
Cc1ccc2c(c1)CCCN2C(C)C(=O)Nc1ccc(Cl)cn1 (stereo unspecified),1.0,1.7
O=C(c1ccc(C(F)(F)F)c(F)c1)N1CCc2c([nH]c3ccccc23)C1c1ccc([N+](=O)[O-])c(Cl)c1 (stereo unspecified),-12.2,-17.1
CC(C)(C)c1ccc(C(=O)Nc2c3c(nn2CC(=O)NCC2CCCO2)CSC3)cc1 (stereo unspecified),2.2,1.2
Cc1c(Cl)c([N+](=O)[O-])nn1CC(=O)N1CCCCC1C (stereo unspecified),19.5,17.3
N#Cc1cccc(CN2CCN(S(=O)(=O)c3ccc(F)cc3)CC2)c1,-11.6,-12.9
Cc1cc(N2CCOCC2)n2ncc(-c3ccccc3)c2n1,-3.8,-5.2
CCOc1ccc(N2C(=O)CSC2c2cccc(NC(=O)c3ccc(Br)cc3)c2)cc1 (stereo unspecified),0.7,1.0
COc1ccc(C)cc1N1CCN(C(=O)c2ccccc2C)C(C)C1=O (stereo unspecified),-9.8,-8.8
O=C(CN1C(=O)CSC1c1ccc2c(c1)OCCO2)NCc1ccco1 (stereo unspecified),11.8,10.5
C=CCOc1c(CNc2ncn[nH]2)cccc1OC,0.1,0.1
Cc1cccc(C(C(=O)N2CCCN(C(=O)C3CC3)CC2)N(C)C)c1 (stereo unspecified),-3.6,-5.6
Cc1ccc(-n2nnc3c(=O)n(Cc4ccc(Cl)cc4Cl)cnc32)cc1,2.3,7.3
C=CCn1c(-c2c(-c3ccccc3)ncn2CCc2cnc[nH]2)nc2ccccc21,0.8,-1.2
O=C(CNc1cc(F)ccc1F)NCc1ccc(Cl)cc1,7.7,7.2
Cc1ccc(-n2nnc3c(=O)n(CC(=O)N4CCN(c5ccccc5)CC4)cnc32)cc1Cl,-4.3,-7.9
CCC(C)N(Cc1ccccc1OS(=O)(=O)c1ccc(NC(C)=O)cc1)C(=O)c1cccs1 (stereo unspecified),2.9,11.8
COc1ccc(OC)c(S(=O)(=O)NC(=O)C2(C)CCN2C(=O)c2ccco2)c1 (stereo unspecified),4.7,3.6
# The results go on.
SMILES,NPYLR7 ag,NPYLR7 ag max-min
CCOC(=O)C(=O)N1CCC(=O)N(CC)C[C@H]2COc3cc(OC)ccc3[C@H]21,-0.6,6.0
CNC(=O)C1Cc2ccccc2CN1CCCc1ccccc1 (stereo unspecified),1.0,-0.7
CCOc1ccc(-n2c(=O)c3ccccc3n(C(CC)C(=O)NCc3ccco3)c2=O)cc1 (stereo unspecified),10.3,12.5
Cc1cc(NC(=O)CSc2nc(-c3ccc(F)cc3)nc3c2c(=O)n(C)c(=O)n3C)no1,8.7,8.3
CCN1CCN(c2ncc(-c3cc(=O)[nH]c(N4CCc5ccccc54)n3)c(C)n2)CC1,3.7,-0.3
O=C(CCl)N1N=C(c2cccs2)CC1c1ccco1 (stereo unspecified),3.1,6.8
CCCOc1cc(S(=O)(=O)NCc2ccco2)ccc1Cl,1.5,-0.4
O=c1cc(CSc2nnnn2C2CC2)nc2sccn12,1.4,4.1
CC(C)=NOC(C)C(=O)N1CCC2(CC1)CC(=O)c1cc(C)c(C)cc1O2 (stereo unspecified),12.0,7.6
C[n+]1ccccc1C=C1C=Cc2ccccc2N1CCCS(=O)(=O)O,-12.4,-21.1
O=C(NCc1cccc2[nH]ccc12)C1CCC(=O)N(CCCN2CCOCC2)C1 (stereo unspecified),11.7,12.9
CC(C)CN(Cc1cccc(OS(=O)(=O)c2cccc(C(F)(F)F)c2)c1)C(=O)c1cccc(C(F)(F)F)c1,-7.9,-10.5

# An excerpt from above in order of SMILES length, smallest number first.
SMILES,NPYLR7 ag,NPYLR7 ag max-min
O=C(NCc1cccc2[nH]ccc12)C1CCC(=O)N(CCCN2CCOCC2)C1 (stereo unspecified),11.7,12.9
CCOc1ccc(-n2c(=O)c3ccccc3n(C(CC)C(=O)NCc3ccco3)c2=O)cc1 (stereo unspecified),10.3,12.5
Cc1cc(NC(=O)CSc2nc(-c3ccc(F)cc3)nc3c2c(=O)n(C)c(=O)n3C)no1,8.7,8.3

# More records
SMILES,NPYLR7 ag,NPYLR7 ag max-min
Cc1nc(C(C)N(C)C(=O)NC2CCCC2)c(C)s1 (stereo unspecified),15.9,10.0
CC(C)(CCl)C(=O)Nc1c(-c2ccc(C(F)(F)F)cc2)nc2ccccn12,-5.7,-3.1
CNC(=O)C1CN(S(=O)(=O)c2cccc(F)c2)c2ccccc2O1 (stereo unspecified),2.8,3.5
Cc1nc(Cn2ccnc2-c2nc[nH]c2C)nc2c1CCCC2,-1.5,-4.1
Cn1cc(-c2csc(C(C)(C)NC(=O)c3ccccc3)n2)cn1,5.4,4.3
O=C(NCCSc1ccccc1)c1ccccc1,20.4,18.9
CC(CNC(=O)C1(C)CC1(Cl)Cl)N1CCCC1 (stereo unspecified),0.6,-1.8
NC(=O)c1csc(C(=O)Nc2cc(-c3ccccc3F)no2)c1,0.7,-1.7
Clc1ccc2nc(-c3ccccc3Cl)c(NCc3ccccc3)n2c1,4.8,20.9
Cc1ccc(NC(=O)Nc2ccc(Nc3cc(-n4ccnc4)ncn3)cc2)cc1F,-14.8,-22.3
CC1CC1C(=O)Nc1ccc(F)c(-n2nnnc2C2CC2)c1 (stereo unspecified),5.7,i
COc1cc(OC)cc(C(=O)Nc2ccc(Cl)c(-c3nc4ccc(C)cc4o3)c2)c1,-4.1,-10.1
Cc1nn(S(C)(=O)=O)c(C)c1S(=O)(=O)N1CCCC1,1.2,8.5
CC(C)(Cc1c[nH]c2ccccc12)NS(=O)(=O)c1ccccc1C(F)(F)F,-0.1,-0.8
Cc1cccc(C(C)C)c1NC(=O)Nc1cnn(Cc2ccncc2)c1,2.4,5.5
CCCn1ncc(C(=O)N2CC(c3ccncc3)C2)c1C,0.4,-2.0
COc1ccc(-c2csc(-n3[nH]c(C)c(N=Nc4ccc(N(C)C(C)=O)cc4)c3=O)n2)cc1,-5.5,-10.2
CCc1nc2n(n1)C(=O)C(C(c1cccc(OC)c1)N1CCC3(CC1)OCCO3)S2 (stereo unspecified),-2.5,-9.2
O=C(Nn1cnc2ccccc21)C1CCCN(C(=O)c2ccc(Cl)c(Cl)c2)C1 (stereo unspecified),4.4,2.3

# Whole records from above. Values in the order: NPYLR7 ag	NPYLR7 ag max-min
# CCCn1ncc(C(=O)N2CC(c3ccncc3)C2)c1C as listed: 0.4	-2.0
# CCc1nc2n(n1)C(=O)C(C(c1cccc(OC)c1)N1CCC3(CC1)OCCO3)S2 (stereo unspecified) as listed: -2.5	-9.2
